Bioassay records (PubChem)
RanGTP-Imp inh: disruptors of Ran-importin-beta complex formation – biochemical, FRET, CFP-Ran, YFP-importin-beta, homogeneous, primary screen. cell-free CFP-Ran/YFP-importin-beta FRET ratio. inhibition, % (concentration not given with the values). 300,000 tested, 1.1% active;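 active = most replicates above 15%; inconclusive = exactly half above 15%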;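 note: 0% = DMSO wells and 100% = Ran loaded with GDP instead of GTP; wells of about 40 µL received 100 nL stock; the first replicate is given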
MLL AF4-AF9 inh: inhibitors of human MLL-AF4/AF9 interaction. P42568. AlphaScreen, biotin-AF4 peptide binding to FLAG-AF9. inhibition, % at 10 µM. 350,000 tested, 0.47% active;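 active = every replicate reaching a set inhibition limit, whatever the replicate mean, cut at about 25% in these data; inconclusive = mean inhibition reaches that limit but some replicates miss it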;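 note: 0% = plate neutral control median and 100% = total signal loss; the record names both 10 and 1 µM as test concentration; the first replicate is given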
Target sequence (P42568 whole entry, looked up): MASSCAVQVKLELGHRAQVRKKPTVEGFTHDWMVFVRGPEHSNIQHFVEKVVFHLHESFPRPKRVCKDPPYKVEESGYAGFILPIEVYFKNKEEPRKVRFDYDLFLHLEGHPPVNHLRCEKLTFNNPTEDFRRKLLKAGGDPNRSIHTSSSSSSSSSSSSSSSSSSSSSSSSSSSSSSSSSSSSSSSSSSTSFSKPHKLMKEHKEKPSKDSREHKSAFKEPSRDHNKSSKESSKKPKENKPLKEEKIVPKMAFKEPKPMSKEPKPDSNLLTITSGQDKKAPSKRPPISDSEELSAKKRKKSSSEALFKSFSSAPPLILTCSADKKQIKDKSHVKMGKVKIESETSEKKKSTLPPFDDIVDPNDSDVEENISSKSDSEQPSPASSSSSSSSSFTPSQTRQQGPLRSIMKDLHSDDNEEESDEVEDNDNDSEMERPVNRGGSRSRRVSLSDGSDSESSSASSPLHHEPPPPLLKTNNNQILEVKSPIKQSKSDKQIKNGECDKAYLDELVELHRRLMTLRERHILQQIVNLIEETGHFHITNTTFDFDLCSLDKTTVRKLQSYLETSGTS
T cruzi inh: blocks replication of Trypanosoma cruzi; T. cruzi beta-gal in NIH3T3, luminescence, 90 h; inhibition, % (no concentration beside the values); 300,000 tested, 1.4% active;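 active = mean inhibition across valid replicates above about 55%, limit read from the data; inconclusive = mean below that limit but half or more replicates reach it; inactive = mean below it, under half of replicates reach it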;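 note: signal also drops with host cell toxicity which is not excluded here; 0% = plate median of DMSO wells and 100% = zero luminescence signal; higher percent means less beta-gal luminescence so fewer parasites; stock transfer was 50 nL into about 50 µL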
Calb FLC: C. albicans growth modulation with fluconazole | growth inhibition, % (test concentration not listed) | C. albicans CaCi-2 (fluconazole-resistant clinical isolate) + fluconazole, Alamar Blue growth, 48 h | 300,000 tested, 0.57% active;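 active = most replicates above 75%; inconclusive = exactly half above 75%; inactive = most below 75%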;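 note: all wells also contain fluconazole at 8 µg/ml as a sub-toxic cotreatment; 0% = median of DMSO wells and 100% = median of geldanamycin control wells; wells of about 8 µL received 7.5 nL stock; the first replicate is given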
Ecoli rRNA inh: inhibits bacterial ribosomal RNA function over humanized ribosomes. 350,000 tested, 1.6% active. GFP signal change (wild-type ribosome), % (test concentration not listed). E. coli WT GFP vs humanized-ribosome RFP mutants, fluorescence, 24 h; hits give low values; DMSO median 0, no signal -100;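 active = significant combined selectivity score with lowered wild-type GFP, culture density cut under 30%, mutant RFP and density less affected; inactive = any of these conditions unmet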; note: one replicate is shown; some compounds called inactive have numbers as strong as hits
FGF22 binding: binders of recombinant human FGF22 by thermal shift; AID 651658; SYPRO orange fluorescence; percent of sucrose octasulfate shift, DMSO zero; 340,000 tested, 1.5% active; calls only at 9.99 µM;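 active = melting point raised past a set limit in the mean and every replicate; inconclusive = no clear call; three in four hits are not shown here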
Target sequence (Q9HCT0 whole entry, looked up): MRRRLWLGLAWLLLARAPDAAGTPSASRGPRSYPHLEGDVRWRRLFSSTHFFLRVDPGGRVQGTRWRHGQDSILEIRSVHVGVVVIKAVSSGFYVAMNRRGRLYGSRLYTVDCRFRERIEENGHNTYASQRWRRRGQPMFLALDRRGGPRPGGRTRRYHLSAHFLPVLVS
ALR inh: human ALR oxidase inhibition via reduced H2O2; AID 485317; purified ALR, DTT oxidation, H2O2 HRP-luminol luminescence; inhibition, % (concentration not given with the values); 290,000 tested, 3.8% active;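 active = mean and each replicate at 75% or more; inconclusive = only one of the two met; inactive = neither met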;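 note: stock transfer was 7.5 nL into about 7.5 µL; 0% = neutral wells and 100% = wells with inactivated enzyme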
Target sequence (P55789 whole entry, looked up): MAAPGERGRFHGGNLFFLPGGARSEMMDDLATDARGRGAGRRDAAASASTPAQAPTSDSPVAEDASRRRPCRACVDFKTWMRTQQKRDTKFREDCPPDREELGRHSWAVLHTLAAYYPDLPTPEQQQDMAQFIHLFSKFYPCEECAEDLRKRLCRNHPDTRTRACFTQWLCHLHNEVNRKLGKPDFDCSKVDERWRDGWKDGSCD
Beta cell apopt: beta cell apoptosis inhibition; INS-1E cytokine-induced death, ATP luminescence, 48 h; percent of positive-control rescue, neutral wells zero; protection from apoptosis, % (no concentration beside the values); 300,000 tested, 0.8% active;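 active = all replicates at 75% or more, or half of them and the mean; inconclusive = half reach 75% but not the mean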;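 note: 0% = cytokine-treated negative control wells and 100% = positive control rescue; higher means more ATP so stronger rescue from cytokine killing; wells of about 40 µL received 100 nL stock; the first replicate is given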
Ecoli rRNA inh OD600: second read-out of Ecoli rRNA inh, no call of its own (marks repeat the call); OD600 change, %; measured here: OD600 growth;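 optical density of the mix in the first replicate; 0 = DMSO median and -100 = no signal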
Ecoli rRNA inh RFP: also measured in Ecoli rRNA inh; calls as there; RFP signal change, %; measured here: RFP humanized mutant strains;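 first replicate; 0 = DMSO median and -100 = no signal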
The depositor's hits bear a star; i = inactive; ? = inconclusive; . = no result given.

SMILES | RanGTP-Imp inh | MLL AF4-AF9 inh | T cruzi inh | Calb FLC | Ecoli rRNA inh | Ecoli rRNA inh OD600 | Ecoli rRNA inh RFP | FGF22 binding | ALR inh | Beta cell apopt
CCN1CCCc2cc(CN(CCN3CCOCC3)C(=S)Nc3ccc(OC)c(OC)c3)ccc21 | 1.2 | -0.2 | 45 | -4 | 3 | -4 | 3.5 | i | 92* | 2
COc1ccc(NS(=O)(=O)c2cccc(C(=O)NCc3ccco3)c2)cc1 | 0.3 | 3.0 | 18 | -4 | 3 | 1 | 3.9 | i | -3 | 0
CCOC(=O)c1n[nH]n2c1nc(=S)c1ccccc12 | 1.9 | -2.3 | -6 | 13 | 4 | 8 | -3.8 | i | 1 | -1
NS(=O)(=O)c1ccc(CCNC(=O)COC(=O)c2cc([N+](=O)[O-])ccc2N2CCOCC2)cc1 | -1.6 | -7.7 | 1 | -1 | 8 | 7 | -1.5 | i | -47 | 0
Cc1cc(N=Cc2c(O)n(-c3ccc4c(c3)OCO4)c(=O)c3ccccc23)ccn1 | -1.5 | . | -26 | -10 | . | . | . | . | . | 15
CC1=NN(C(N)=S)C(=O)C1N=Nc1ccc(S(N)(=O)=O)cc1 (stereo not drawn) | -3.0 | -2.1 | -6 | -4 | 10 | 16 | -1.9 | i | 32 | 1
CCOc1c(Br)cc(CNc2ncn[nH]2)cc1OC | -1.3 | . | 9 | -17 | . | . | . | . | 3 | .
CCOC(=O)CSc1nc2sc(C)c(C)c2c(=O)n1C | 0.2 | . | -7 | 4 | . | . | . | . | 0 | 2
COc1cc(C2N(c3ccccc3)CCN2c2ccccc2)ccc1OC(C)=O | -1.1 | . | 20 | -8 | . | . | . | . | 94* | .
COCCn1c(SCC(=O)NC2CCCC2)nnc1C(C)C | -1.3 | 0.4 | 0 | -7 | 9 | 6 | -0.5 | i | 4 | -1
O=C(CN1C(=O)CSc2ccccc21)Nc1ccc2c(c1)OCCO2 | -1.5 | . | -5 | -8 | . | . | . | . | -2 | 3
CCc1ccc(NC(=S)NC(=O)CC(C)C)cc1 | -3.6 | -0.2 | 28 | -20 | 5 | 11 | -3.1 | i | -7 | 1
O=C(OCCOc1ccc(Br)cc1)c1cnccn1 | 2.5 | . | -35 | -15 | . | . | . | . | 53 | 8
COc1ccc(Cc2nnc(N)s2)cc1 | -1.1 | . | 1 | -7 | . | . | . | . | -8 | -5
COC(=O)CC(NC(=O)Nc1ccccc1F)c1ccc2c(c1)OCO2 (stereo not drawn) | -2.2 | 1.1 | 10 | -1 | 7 | 12 | 2.9 | i | -5 | -1
CCOC(=O)C1CCN(C(=O)COC(=O)c2cc(-c3cccs3)nn2-c2ccccc2)CC1 | 1.7 | 8.4 | -6 | 5 | -9 | -11 | 3.7 | i | -83 | -4
CCOc1cccc(/C(O)=C2/C(=O)C(=O)N(Cc3cccnc3)C2c2ccco2)c1 (stereo not drawn) | 1.2 | . | -12 | -1 | . | . | . | . | . | -1
NC(=O)N(N)c1nc(N2CCCC2)nc(N2CCCC2)n1 | . | 1.0 | . | . | 6 | 9 | 0.2 | i | 9 | -2
CCn1cc(C(=O)NCCCN(CC(C)C)CC(C)C)c(=O)c2cc(S(=O)(=O)N(C)C3CCCCC3)ccc21 | 0.7 | -9.1 | 14 | -11 | 0 | 5 | -3.6 | i | 1 | 4
COc1ccc(C2=CC(c3ccc(OC)c(OC)c3)NC(=S)N2)cc1 (stereo not drawn) | -2.4 | . | 18 | -1 | . | . | . | . | -18 | 3
COCCNC(=O)CN(Cc1cccs1)C(=O)CCC(=O)Nc1nccs1 | 0.0 | -1.0 | -10 | -3 | -3 | 3 | 1.4 | i | -17 | .
COc1ccc(CNC(=O)c2cnn3c(C(F)F)cc(C)nc23)cc1OC | 3.7 | -3.2 | -3 | 18 | 1 | -6 | -0.3 | i | 8 | 6
COC(=O)C1N[C@@H]([C@@H](NC(=O)COc2ccccc2)C(=O)NCc2ccc(OC)cc2)SC1(C)C (stereo partly drawn) | -0.7 | -3.5 | -26 | -11 | -4 | -13 | -13 | i | -3 | -7
COc1cccc(/C=N/n2nnnc2N)c1OCc1ccccc1Cl | 2.7 | . | -1 | 15 | . | . | . | . | -2 | -2
CCOC(=O)C1=C(C)OC(N)=C(C#N)C1c1cncc(-c2ccc(F)cc2)c1 (stereo not drawn) | -3.5 | . | -9 | 21 | . | . | . | . | 4 | .
Cn1ccnc1-c1nnn(-c2ccc(F)cc2)n1 | 0.0 | -7.5 | -12 | 6 | 2 | -4 | -0.5 | i | -12 | 6
COc1ccc(C(=O)NNC(=O)Cn2nnc(-c3ccc(OC)c(OC)c3)n2)cc1 | -1.6 | -0.5 | -16 | 6 | 6 | 7 | 1.9 | i | -15 | -5
O=C(N/N=C/c1ccc2nccnc2c1)c1ccc(Br)cc1 | 1.4 | 0.2 | 8 | 4 | 17 | 2 | -1.1 | i | -15 | 7
O=C(CCc1ccccc1)NCCSCc1c(F)cccc1Cl | 1.2 | -2.9 | 3 | 13 | -45 | -61 | -6.7 | i | . | -3
Cc1c(C(=O)N2CCOCC2)sc2ncn(CC(=O)N3CCC(C)CC3)c(=O)c12 | -4.0 | . | -20 | 6 | . | . | . | . | . | -4
CCCn1c(SCC(=O)Nc2ccc(F)c(Cl)c2)nc(O)cc1=O | . | -0.5 | . | . | -1 | 1 | 14 | i | . | -4
CC1(C)Cc2nc3oc4c(=O)n(CC(=O)Nc5ccccc5)cnc4c3cc2CO1 | ? | -3.5 | 6 | 24 | 8 | 9 | 0.0 | . | 0 | 7
COC(=O)c1cn(NC(=O)CCC2CCCC2)c(=O)c2ccccc12 | 6.7 | . | -4 | 12 | . | . | . | . | -2 | -6
COc1ccc(CCNC(=O)Cn2cc(C(F)(F)F)cc(Cl)c2=O)cc1OC | -2.3 | 3.3 | -20 | 0 | 8 | 8 | 0.4 | i | -14 | -10
COC(=O)CC1C(=O)NCCN1C(=S)NC(=O)c1ccccc1[N+](=O)[O-] (stereo not drawn) | 0.3 | . | -13 | -2 | . | . | . | . | -4 | 1
COc1cc(C(=O)NCc2nnc(SCC(=O)Nc3cccc(C)c3)o2)cc(OC)c1OC | 6.5 | . | -12 | -1 | . | . | . | . | 17 | 2
CCC(C)[C@@H](CN)NCC1(c2ccccc2)CC1 (stereo partly drawn) | . | 6.3 | . | . | 6 | 11 | 8.2 | i | 0 | 4
CC(C)N(C(=O)COC(=O)c1cncc(Br)c1)C(C)C | -2.1 | -0.8 | -5 | -14 | 25 | 17 | 1.3 | i | -2 | -4
O=C(NN1C(=O)c2ccccc2NC1c1ccco1)c1ccc([N+](=O)[O-])cc1 (stereo not drawn) | 0.6 | 7.0 | 5 | -4 | 14 | 8 | 0.3 | . | -19 | 0
CCN1CCN(CCCNC(=O)c2ccc3c(=O)n(CCc4ccccc4)c(=O)[nH]c3c2)CC1 | 3.4 | 1.7 | -22 | -5 | 2 | 4 | -2.4 | i | 0 | -4
Cc1ccc(C)c(-c2nn(-c3cc(N4CCN(CCO)CC4)ccc3[N+](=O)[O-])c(=O)c3ccccc23)c1 | 0.9 | ? | 61* | 31 | -45 | -37 | -5.3 | i | -6 | 2
O=C(O)c1nn(CC(=O)N2CCN(c3ccccc3)CC2)c(=O)c2ccccc12 | -1.4 | -0.4 | -10 | 3 | 2 | 7 | -1.3 | i | -3 | -4
O=C(c1ccco1)N1CCN(Cc2cn[nH]c2-c2ccc(F)cc2F)CC1 | -4.7 | -1.5 | -4 | 0 | 8 | 1 | -1.0 | i | 1 | 2
O=C(NCc1ccccn1)C1CC(c2ccc(F)cc2)=NO1 (stereo not drawn) | -1.9 | . | -7 | -2 | . | . | . | . | -12 | -5
c1ccc(C2[C@H]3CN(Cc4cccnc4)[C@H](c4ccccc4)C34CC2(c2cccnc2)C4)cc1 (stereo partly drawn) | 9.9 | 11 | 26 | -8 | -18 | -25 | -19 | i | . | 0
CSc1cccc(NC(=O)C2CCN(S(C)(=O)=O)CC2)c1 | 3.8 | . | -3 | -6 | . | . | . | . | -9 | -5
COc1ccc2oc(C(=O)OCC(=O)Nc3ccc(N4CCOCC4)cc3)c(C)c2c1 | 4.7 | -0.7 | -5 | 1 | 12 | 7 | 2.7 | i | 10 | .
Cc1c(Cc2ccccc2)c(=O)oc2c(C)c(OCC(=O)Nc3ccc(C#N)cc3)ccc12 | ? | -2.2 | -7 | -4 | -1 | 3 | 3.6 | i | -3 | -3
O=C(CN1CCN(c2ccc(F)cc2)CC1)Nc1nccs1 | 1.8 | -1.5 | -3 | -5 | 7 | 2 | 3.8 | i | . | .
CCOc1ccccc1C(=O)NC(C)c1ccc2c(c1)OCO2 (stereo not drawn) | -2.4 | . | 13 | -3 | . | . | . | . | 1 | -2
Cc1cc(C)c2nc(NNC(=O)c3ccc(S(=O)(=O)N4CCc5ccccc5C4)cc3)sc2c1 | -4.1 | 5.3 | 59* | 0 | -2 | -15 | -5.9 | i | -4 | 87*
CCOC(=O)c1cnc(SC)nc1N1CCCC1 | 0.5 | -1.2 | 0 | 11 | -7 | -9 | -1.9 | i | . | -4
COc1cccc(N2C(C(C)=O)=NN(c3ccccc3)C2c2ccc(N3CCOCC3)cc2)c1 (stereo not drawn) | -0.4 | . | 77* | -27 | . | . | . | . | . | 4
COc1ccccc1N1CCN(C(=O)Nc2ccc([N+](=O)[O-])cc2)CC1 | -13 | 1.5 | -10 | 1 | -5 | 1 | -1.6 | i | 36 | 2
O=C(NC(C(=O)N/N=C/c1cccc2ccccc12)c1n[nH]c(=O)c2ccccc12)c1ccccc1 (stereo not drawn) | 5.5 | . | -7 | 3 | . | . | . | . | 0 | -11
COc1cc(/C=N/NC(=O)c2ccncc2)ccc1Oc1ccc([N+](=O)[O-])cn1 | 0.3 | -1.3 | 19 | -8 | 26 | 16 | 1.9 | i | -3 | -1

Rewritten with two lines to a compound: entries from further up.
The line under a structure holds: RanGTP-Imp inh, MLL AF4-AF9 inh, T cruzi inh, Calb FLC, Ecoli rRNA inh, Ecoli rRNA inh OD600, Ecoli rRNA inh RFP, FGF22 binding, ALR inh, Beta cell apopt
COc1ccc2oc(C(=O)OCC(=O)Nc3ccc(N4CCOCC4)cc3)c(C)c2c1
→ 4.7, -0.7, -5, 1, 12, 7, 2.7, i, 10, .
CCOC(=O)c1cnc(SC)nc1N1CCCC1
→ 0.5, -1.2, 0, 11, -7, -9, -1.9, i, ., -4
COc1ccccc1N1CCN(C(=O)Nc2ccc([N+](=O)[O-])cc2)CC1
→ -13, 1.5, -10, 1, -5, 1, -1.6, i, 36, 2
Cc1c(Cc2ccccc2)c(=O)oc2c(C)c(OCC(=O)Nc3ccc(C#N)cc3)ccc12
→ ?, -2.2, -7, -4, -1, 3, 3.6, i, -3, -3

Some of the compounds tested (hit frequency here may not be typical).
